Compound activity deposited in PubChem BioAssay by National Center for Advancing Translational Sciences (NCATS).
TRPML1 ag: human mucolipin-1 channel agonism | Q9GZU1 | TRPML1-expressing cells, Ca2+ dye fluorescence, FDSS; host cell line not named in the record; reference of the full effect not given here | activation, % (test concentration not listed) | 410,000 compounds, 0.12% hits; in the data active = activation above about 50%; inconclusive = about 30% to 50%; inactive = below about 30%; further: 0% is about no effect; the text of the record puts the active cut at 80%
Target sequence (Q9GZU1 whole entry, looked up): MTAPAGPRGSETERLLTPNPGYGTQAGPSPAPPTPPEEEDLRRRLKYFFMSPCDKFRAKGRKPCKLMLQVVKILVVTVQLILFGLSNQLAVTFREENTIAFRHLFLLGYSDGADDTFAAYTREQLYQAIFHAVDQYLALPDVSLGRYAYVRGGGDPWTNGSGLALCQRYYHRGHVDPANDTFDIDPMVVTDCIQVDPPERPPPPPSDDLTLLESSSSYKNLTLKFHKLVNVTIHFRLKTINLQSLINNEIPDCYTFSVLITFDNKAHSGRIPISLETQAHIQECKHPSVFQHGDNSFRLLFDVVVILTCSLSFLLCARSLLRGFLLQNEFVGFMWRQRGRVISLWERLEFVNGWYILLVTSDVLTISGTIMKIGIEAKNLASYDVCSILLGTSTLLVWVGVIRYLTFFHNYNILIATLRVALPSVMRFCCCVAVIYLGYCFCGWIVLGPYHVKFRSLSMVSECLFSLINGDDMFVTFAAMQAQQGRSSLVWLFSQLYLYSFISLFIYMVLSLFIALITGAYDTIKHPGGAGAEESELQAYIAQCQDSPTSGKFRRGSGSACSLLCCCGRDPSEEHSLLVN
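Calcium fluorescence on an FDSS kinetic reader gave the read-out. Tet-induced TRPML1-DL cells were plated overnight, dye-loaded (Ca8 with quencher, 45-90 min, room temperature, dark), then read 110 s after compound addition, and again 110 s after 4uM final 54-4 (EC80).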
gsp ag: activates gsp, the McCune-Albright syndrome mutation | gsp mutant cells, cAMP HTRF, 30 min; control for the full effect not named in the record | Potency, µM (top dose mostly 76.9 µM), for the others: top-dose activation (cAMP increase), most hits filed as activators | 340,000 compounds, 0.13% hits | AID 624287; active = well fitted activation curve with a large enough effect; inconclusive = small, poorly fitted or top-dose-only effect, or another doubt; inactive = no such curve, though single readings can be large or run the other way; cell line not stated here;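 further: phosphodiesterase inhibitor Ro 20-1724 added with compounds to block cAMP breakdown; potency means the concentration at half of the fitted maximal effect; nearly all actives have a fitted effect of over 60% in size; about a fifth of the inactives were tested at one dose only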
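Cells stably selected in G418 were plated at 2000/well, grown 16-24 hr, then given compounds in DMSO with the PDE inhibitor […] (300 uM solution added) for 30 min at 37C; cAMP was read by HTRF.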
gsp antagonist: antagonists of gsp mutant (McCune-Albright syndrome); gsp-mutant cells, cAMP HTRF, 30 min; control for the full effect not named in the record; Potency, µM (doses to about 76.9 µM), for inactives: top-dose activity change, negative = inhibition, hits mostly inhibitors; 340,000 compounds, 0.4% hits; AID 624288; active = falling curve of any shape with a large fitted effect; inconclusive = falling curve, mostly with a smaller effect; inactive = flat or rising curve; cell line not stated here;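 further: intracellular cAMP measured with PDE inhibitor Ro 20-1724 present during compound exposure; potency means the concentration at half of the fitted maximal effect; on the % scale 0 is the no-effect control and ±100 the full control effect; nearly all actives have a fitted effect of over 65% in size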
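Cells, 2000/well, grown 16–24 h in DMEM 10% FBS with 0.5 mg/ml G418, then compounds plus […] (300 uM addition stock), 30 min at 37C. cAMP read by HTRF (cAMP-d2 and anti-cAMP antibody-K in lysis buffer) after 30 min RT.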
Menin-MLL FL inh: displaces fluorescein MLL peptide from human menin | Fluorescence polarization, fluorescein-MLL peptide displacement from menin | 290,000 tested, under 10 active | FP activity change, % at 61.4 µM; inconclusive = falling polarisation curve, or a change in total fluorescence; inactive = total fluorescence flat and polarisation flat or rising; no compound was filed as active; the % refers to the polarisation; negative = inhibition;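 further: % of control where 0% means no effect; inhibitors lower the polarisation; unlabelled MLL peptide was the positive control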
ClpP mod: qHTS Assay for Activators of ClpP; ATP-dependent Clp protease proteolytic subunit (Bacillus subtilis (strain 168)), P80244; purified B. subtilis ClpP, FRET peptide cleavage, 20 min; Potency, µM (series often up to 57.5 µM), inactives show at the highest dose activity change, negative = active; 340,000 compounds, 1.9% hits; active = well fitted falling curve with a large enough effect; inconclusive = small, poorly fitted or top-dose-only effect; inactive = no such curve, though single readings can be large or run the other way; further: potency means the concentration at half of the fitted maximal effect; the source files actives as falling curves though it sought activators and does not explain the sign; nearly all actives have a fitted effect of over 65% in size; many hits overshoot -100%
Target sequence (P80244 whole entry, looked up): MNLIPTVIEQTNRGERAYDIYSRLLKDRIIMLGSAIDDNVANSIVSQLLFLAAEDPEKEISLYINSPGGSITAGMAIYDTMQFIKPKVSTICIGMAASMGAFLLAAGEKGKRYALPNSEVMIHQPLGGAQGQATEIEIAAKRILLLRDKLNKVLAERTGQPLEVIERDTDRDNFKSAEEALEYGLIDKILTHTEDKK
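Purified B. subtilis ClpP, 10 microg/mL final in Tris/HCl pH8 with KCl, BSA, glycerol and Tween-20, cleaved an Abz/nitrotyrosine-quenched decapeptide. Fluorescence (ex 320, em 430) was read at 0 and 20 min at room temperature. Delta was normalized to 5.8 microM ADEP and DMSO/no-enzyme controls.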
TRPML1 blocker: human mucolipin-1 channel inhibition; Q9GZU1; TRPML1-inducible cells, Ca2+ dye fluorescence, FDSS; active compounds read low; inhibition of EC80 agonist-evoked calcium signal; activity change, negative = inhibition, % (no concentration beside the values); 390,000 compounds, 0.02% hits; in the data active means activity change below about -50%; inconclusive means about -30% to -50%; inactive means above about -30%;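 further: stimulus is agonist 54-4 at its EC80 concentration; on the % scale 0 is the no-effect control and ±100 the full control effect; compound concentration not given in the record; the text of the record puts the active cut at -80%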
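Calcium fluorescence in TRPML1-DL cells induced overnight with Tet: a 110 s read after compound pin addition, then a 110 s antagonist read after challenge with 54-4 at 4 uM final (EC80).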
* hit, by the source's call; & = joins results of further samples; [ ] = remark or other dose.

Results for CCOc1ccc(S(=O)(=O)N2CCC(C(N)=O)CC2)c2ccccc12 ?
TRPML1 ag: 0.8; gsp ag: -8%; gsp antagonist: -6%; Menin-MLL FL inh: -1.4; ClpP mod: -1.4%; TRPML1 blocker: -1

Results for N=C1SC(CC(=O)Nc2ccccc2[N+](=O)[O-])C(=O)N1c1ccccc1 (configuration not stated) ?
TRPML1 ag: 0.8; gsp ag: 2%; gsp antagonist: -2%; Menin-MLL FL inh: -1.8; ClpP mod: 0.2%; TRPML1 blocker: -28

How did CCOC(=O)C1CCCN(C(=O)CN2C(=O)/C(=C/c3ccc(OC)cc3)Oc3ccccc32)C1 (configuration not stated) do in these assays?
TRPML1 ag: 0.6; gsp ag: -17%[15.4 µM]; gsp antagonist: inconclusive; Menin-MLL FL inh: 2.8; ClpP mod: 0.9%; TRPML1 blocker: -3

Results for COc1ccc(NC(=O)COC(=O)c2cnccn2)cc1Cl ?
TRPML1 ag: -0.4; gsp ag: 18%; gsp antagonist: 20%; Menin-MLL FL inh: -0.5; ClpP mod: 0.1%; TRPML1 blocker: -8

What do the screens show for `CC(CC(=O)NCCc1ccc(S(N)(=O)=O)cc1)c1ccccc1` (configuration not stated)?
TRPML1 ag: -0.4; gsp ag: 4%; gsp antagonist: 6%; Menin-MLL FL inh: -3.8; ClpP mod: -1.2%; TRPML1 blocker: -12

What do the screens show for `C=CCN1c2ccccc2C(=O)CS1(=O)=O`?
TRPML1 ag: -0.5&-1.0; gsp ag: 18%; gsp antagonist: 5%; ClpP mod: -2.9%&-2.4%; TRPML1 blocker: -21

Results for CC(C)(C)C(=O)/C(C#N)=C/c1ccc(O)cc1 ?
TRPML1 ag: -0.2; gsp ag: 36%; gsp antagonist: 6%; Menin-MLL FL inh: inconclusive; TRPML1 blocker: -17

Results for CCn1c(=O)n(CC)c2cc(S(N)(=O)=O)c(C)cc21 ?
TRPML1 ag: -0.2; gsp ag: 2%; gsp antagonist: -2%; Menin-MLL FL inh: 4.3; ClpP mod: -1.1%; TRPML1 blocker: -18

How did COCc1cc(=O)[nH]c(N2CCN(Cc3ccc4c(c3)OCO4)CC2)n1 do in these assays?
TRPML1 ag: 1.0; gsp ag: -25%; gsp antagonist: 1%; Menin-MLL FL inh: 1.0; ClpP mod: -1.4%; TRPML1 blocker: -9

Results for COc1ccc(C2C(C(=O)NCCN(C)C)c3ccccc3C(=O)N2C)cc1OC (configuration not stated) ?
TRPML1 ag: 0.5; gsp ag: 19%; gsp antagonist: 7%; Menin-MLL FL inh: -2.0; ClpP mod: 2.0%; TRPML1 blocker: -9

Results for O=C(c1cccc(F)c1F)N1CCCc2ccccc21 ?
TRPML1 ag: -0.2; gsp ag: 3%[15.4 µM]; gsp antagonist: -5%; Menin-MLL FL inh: -2.8; ClpP mod: -0.7%; TRPML1 blocker: -1

Results for FC(F)(F)c1ccc(C2[C@H]3CN(Cc4cccnc4)[C@H](c4ccccc4)C34CC2(c2ccccc2)C4)cc1 (some centres not stated) ?
TRPML1 ag: 2.3; gsp antagonist: -5%; Menin-MLL FL inh: 0.9&1.6; ClpP mod: 0.2%; TRPML1 blocker: 7

What do the screens show for `Cc1ccc2c(c1)nnn2C1CCN(C(=O)Nc2ccccc2C)CC1`?
TRPML1 ag: -0.7; gsp ag: -13%[15.4 µM]; gsp antagonist: 5%; Menin-MLL FL inh: -2.8; TRPML1 blocker: -6

Results for CC1=C(C(=O)Nc2ccc(Cl)cc2)C(c2ccccc2C)n2ncc(C(=O)Nc3ccc(C)cc3)c2N1 (configuration not stated) ?
TRPML1 ag: 2.1; ClpP mod: 32µM*; TRPML1 blocker: 26

How did COc1ccc(-c2c(C#N)c(N)nc3c2CCc2ccccc2-3)cc1OC do in these assays?
TRPML1 ag: 4.5; gsp ag: 27%; gsp antagonist: 2%; Menin-MLL FL inh: 4.0; ClpP mod: 13µM*; TRPML1 blocker: -11

What do the screens show for `CC(C)c1cc(C(=O)NCCc2ccccc2)no1`?
TRPML1 ag: -0.3; gsp ag: 0%; gsp antagonist: 3%; Menin-MLL FL inh: -0.8; ClpP mod: -1.8%; TRPML1 blocker: -6

What do the screens show for `CCOC(=O)c1cc2c(n(-c3ccccc3)c1=O)CC(C)(C)CC2=O`?
TRPML1 ag: 0.3; gsp ag: -4%; gsp antagonist: -9%; Menin-MLL FL inh: 0.5; ClpP mod: 13µM*; TRPML1 blocker: 4

Results for CCCCCCCn1ccc(O)c(CC(=O)OC)c1=O ?
TRPML1 ag: -0.2; gsp ag: -32%[15.4 µM]; gsp antagonist: 16%; Menin-MLL FL inh: 0.0; TRPML1 blocker: -5

How did COC(=O)c1sccc1NC(=O)c1cc(-c2cccc(C)c2)nc2ccccc12 do in these assays?
TRPML1 ag: 5.2; gsp ag: -6%; gsp antagonist: -5%; Menin-MLL FL inh: 0.0; ClpP mod: 2.1%; TRPML1 blocker: 12

Results for N#CC(c1ccccc1)N(CCCCl)C(=O)c1ccc(Br)cc1 (configuration not stated) ?
TRPML1 ag: 3.5; gsp ag: -76%[inhibitor]; gsp antagonist: -18%; Menin-MLL FL inh: 12; ClpP mod: -0.1%; TRPML1 blocker: 9

How did Cc1cc(NC(=O)CSc2ccc(F)cc2)no1 do in these assays?
TRPML1 ag: 0.3; gsp ag: -11%; gsp antagonist: 1%; Menin-MLL FL inh: -1.0; ClpP mod: -3.4%; TRPML1 blocker: 4

How did COc1ccc(C(=O)Nc2nc(-c3ccc([N+](=O)[O-])cc3)c(-c3ccc(OC)cc3)s2)cc1 do in these assays?
TRPML1 ag: 0.5; gsp ag: -18%; gsp antagonist: -2%; Menin-MLL FL inh: 5.2; ClpP mod: 0.7%; TRPML1 blocker: -6

Results for CCOC(=O)c1cc(C)sc1NC(=O)CN1CCN(C(=O)C2CCCO2)CC1 (configuration not stated) ?
TRPML1 ag: 1.6; gsp ag: 2%; gsp antagonist: -25%; ClpP mod: -17%; TRPML1 blocker: -10

How did COc1ccc(NC(=O)C(c2ccccc2)N(C)C(=O)c2ccc(=O)[nH]c2)cc1 (configuration not stated) do in these assays?
TRPML1 ag: -0.3; gsp ag: 0%; gsp antagonist: 7%; Menin-MLL FL inh: 4.0; ClpP mod: 1.3%; TRPML1 blocker: 4

Results for Cc1ccc2ccc(S(=O)(=O)NCc3ccco3)cc2c1 ?
TRPML1 ag: 0.3; gsp ag: -1%[15.4 µM]; Menin-MLL FL inh: 7.3; TRPML1 blocker: -2

What do the screens show for `O=C(O)CCC(=O)N1N=C(c2ccco2)CC1c1ccco1` (configuration not stated)?
TRPML1 ag: -0.5; gsp ag: 2%[15.4 µM]; gsp antagonist: 5%; Menin-MLL FL inh: 0.7; ClpP mod: -1.6%; TRPML1 blocker: 5

How did O=C(CN(C(=O)c1csnn1)c1ccc(Br)cc1)NC1CCCC1 do in these assays?
TRPML1 ag: -1.6; gsp ag: -8%[15.4 µM]; gsp antagonist: 13%; Menin-MLL FL inh: 2.5; ClpP mod: -3.1%; TRPML1 blocker: 29

Results for CN(C)CCCN(C(=O)CCOc1ccccc1)c1nc2ccc(F)cc2s1 ?
TRPML1 ag: 2.3; gsp ag: inconclusive; gsp antagonist: 27%; Menin-MLL FL inh: 0.5; ClpP mod: -3.2%; TRPML1 blocker: -3

Results for CC(C)=CC(=O)Nc1ccc(S(=O)(=O)Nc2onc(C)c2C)cc1 ?
TRPML1 ag: -0.1; gsp ag: 31%[15.4 µM]; gsp antagonist: -4%; Menin-MLL FL inh: 0.5; ClpP mod: -0.8%; TRPML1 blocker: -8

Results for Cc1ccccc1-n1c2nc(=O)n(C)c(=O)c-2cc2ccccc21 ?
TRPML1 ag: 0.2; gsp ag: -4%[15.4 µM]; gsp antagonist: -1%; Menin-MLL FL inh: 0.8; TRPML1 blocker: 1

Results for O=C1NC[C@H](c2ccccc2)OC(=O)[C@@H](Cc2ccc(F)cc2)CC/C=C/C[C@@H]1CC(=O)N(CCO)Cc1ccccc1 ?
TRPML1 ag: -0.6; gsp antagonist: inconclusive; ClpP mod: -1.4%; TRPML1 blocker: -4

What do the screens show for `Cc1c(Cc2ccccc2)sc(/N=C/c2ccc3ccccc3c2)c1C(N)=O`?
TRPML1 ag: 0.2; gsp ag: 16%[15.4 µM]; gsp antagonist: 0%; Menin-MLL FL inh: inconclusive; ClpP mod: 1.2%; TRPML1 blocker: 5

What do the screens show for `CCC(Oc1ccccc1)C(=O)Nc1ccsc1C(=O)OC` (configuration not stated)?
TRPML1 ag: 6.9; gsp ag: inconclusive; gsp antagonist: -6%; Menin-MLL FL inh: -0.1; ClpP mod: -3.4%; TRPML1 blocker: -7

Results for O=C1NC2(CCCCCC2)C(=O)N1Cc1ccccc1F ?
TRPML1 ag: 0.3; gsp ag: 9%; gsp antagonist: 5%; Menin-MLL FL inh: -0.7; ClpP mod: -0.3%; TRPML1 blocker: 32

What do the screens show for `CN(C)S(=O)(=O)c1ccc(C(=O)NCC(=O)N/N=C/c2ccccc2Cl)cc1`?
TRPML1 ag: -0.3; gsp ag: -22%; gsp antagonist: 2%; Menin-MLL FL inh: -0.6; TRPML1 blocker: 16

Results for CC(C)(Oc1ccc(Cl)cc1)C(=O)N1CCN(C(=O)c2ccco2)CC1 ?
TRPML1 ag: -0.3; gsp ag: 0%; gsp antagonist: 2%; Menin-MLL FL inh: 1.3; TRPML1 blocker: 2

What do the screens show for `CCCCNC(=O)[C@@H]1CC=C[C@@H]2CCN(C3CC3)C(=O)[C@@H]21`?
TRPML1 ag: -0.3&-0.7; gsp ag: -15%; gsp antagonist: 7%; ClpP mod: -2.5%&2.4%; TRPML1 blocker: 37

Results for Cc1ccc2nc(C)c(C)nc2c1N ?
TRPML1 ag: -0.4; gsp ag: 3%; gsp antagonist: -13%; Menin-MLL FL inh: 4.7; ClpP mod: -0.3%; TRPML1 blocker: -5

Results for Cc1ccc(S(=O)(=O)CCC(=O)OCn2nnc3ccccc3c2=O)cc1 ?
TRPML1 ag: -0.3; gsp ag: -1%[15.4 µM]; gsp antagonist: -2%; Menin-MLL FL inh: -1.2; ClpP mod: 1.7%; TRPML1 blocker: 27

How did COC(=O)c1[nH]c2ccccc2c1NC(=O)CN1CCN(Cc2ccc3c(c2)OCO3)CC1 do in these assays?
TRPML1 ag: -0.7; gsp ag: -16%; gsp antagonist: 1%; Menin-MLL FL inh: 0.9; ClpP mod: inconclusive; TRPML1 blocker: 3

Results for CCN(CC)c1ccc(NC(=O)CN2CCN(CC(=O)Nc3ccc(F)cc3)CC2)cc1 ?
TRPML1 ag: -1.0; gsp ag: 4%; gsp antagonist: -2%; Menin-MLL FL inh: 1.4; ClpP mod: 2.0%; TRPML1 blocker: 7

What do the screens show for `Nc1ccc(-c2nc3ccccc3s2)cn1`?
TRPML1 ag: -0.5; gsp ag: 4%[15.4 µM]; gsp antagonist: -5%; Menin-MLL FL inh: 0.1; TRPML1 blocker: -13
